Source: PubChem BioAssay
GLA inh pH 4.5: blocks human alpha-galactosidase A at pH 4.5 | P06280 | purified enzyme, 4-MU-alpha-Gal fluorescence, pH 4.5 | activity change, negative = inhibition, % at 105 µM | 230,000 tested, under 10 active; inconclusive = small, poorly fitted or top-dose-only inhibition, or a rising curve; inactive = flat fitted curve, though single readings scatter; no compound was filed as active;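 note: 0% = full activity with enzyme and -100% = basal without enzyme; dose as in the result columns while the protocol names 77 µM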
Target sequence (P06280 whole entry, looked up): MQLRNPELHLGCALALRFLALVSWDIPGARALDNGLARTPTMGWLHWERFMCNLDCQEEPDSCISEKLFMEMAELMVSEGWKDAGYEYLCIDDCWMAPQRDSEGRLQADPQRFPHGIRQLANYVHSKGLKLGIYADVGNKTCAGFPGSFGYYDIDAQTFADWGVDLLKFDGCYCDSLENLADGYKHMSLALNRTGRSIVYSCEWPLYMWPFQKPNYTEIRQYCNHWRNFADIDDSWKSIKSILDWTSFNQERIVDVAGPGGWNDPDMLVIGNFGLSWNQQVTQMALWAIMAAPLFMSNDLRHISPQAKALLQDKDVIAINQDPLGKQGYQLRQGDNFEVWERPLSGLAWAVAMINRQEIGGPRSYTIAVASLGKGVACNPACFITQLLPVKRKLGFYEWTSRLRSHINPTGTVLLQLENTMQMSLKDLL
Rango complex inh: prevents formation of the Rango-importin beta complex; Rango CFP/YFP FRET sensor + importin beta, 45 min; Potency, µM (doses to about 92.2 µM), for inactives: at the top dose inhibition of complex formation; actives 0.031% (n = 340,000); active = rising FRET ratio curve, often small or poorly fitted; inconclusive = mostly compound fluorescence or quenching in the first reads; inactive = flat curves in all reads;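 note: potency is the fitted concentration of half-maximal effect; 0% = DMSO wells and 100% = buffer wells lacking importin beta; nearly all actives have a fitted effect of over 15% in size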
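Inhibition scored from the CFP 486 nm/YFP 530 nm FRET ratio 45 min after adding 0.125 microM importin beta to 50 nM Rango biosensor preincubated 5 min with compound (room temperature, PBS with DTT, Tween-20, BSA). No-importin wells as positive control.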
miR-21 FLuc: miR-21 reporter, rising signal; HeLa miR-21 FLuc reporter, luciferase, 48 h; 340,000 tested, under 10 active; Potency, µM (doses to about 38.3 µM), inactives show at the top dose reporter change, positive = more light; active = well fitted rising curve with a large enough effect; inconclusive = small, poorly fitted or top-dose-only effect; inactive = no such curve, though single readings can be large or run the other way;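 note: % of control where 0% means no effect; miR-21 action dims this reporter so a rising signal means less miR-21 action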
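Compounds were titrated across several concentrations (up to approximately 40 uM) and incubated 48 hours with HeLa miR-21-FLuc reporter cells (miR-21 target sequence downstream of FLuc, endogenous miR-21). Readout was firefly luciferase luminescence after lytic detection reagent.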
Rango dissoc inh: prevents RanGTP from dissociating the Rango-importin beta complex | O95149+P62826 | actives 0.071% (n = 340,000) | Biochemical FRET Rango-importin beta, RanGTP-induced dissociation | Potency, µM (doses to about 46.1 µM), without a hit: at the highest dose activity change, negative = inhibition | AID 540253; active means falling FRET ratio curve, often poorly fitted, with flat reads before Ran was added; inconclusive means other falling curves, or compound fluorescence or quenching; inactive means flat or rising ratio curve;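 note: potency is the fitted concentration of half-maximal effect; % of control where 0% means no effect; nearly all actives have a fitted effect of over 45% in size; -100% = wells without RanGTP and RCC1; the record marks most hits as doubtful in a second field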
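Rango FRET biosensor (snurportin-1 IBB flanked by N-terminal EYFP and C-terminal CFP10) at 0.1 uM, with 0.25 uM importin beta in PBS, 1mM DTT, 0.02% Tween-20, 0.1% BSA. 0.6 uM Ran, 2mM GTP and 0.2 uM RCC1 were then added for 45 min at room temperature. Inhibition read as loss of FRET rise.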
An asterisk follows results filed as active; u = inconclusive; x = not tested or not shown; & = joins results of further samples; [ ] = another dose, or the depositor's remark.

Below each compound: GLA inh pH 4.5	Rango complex inh	miR-21 FLuc	Rango dissoc inh
1. Cc1ccc(-c2ccc(=O)n(CC(=O)N3CCN(c4cccc(C)c4)C(C)C3)n2)cc1 (stereo not drawn)
 : 3	-0.5%	10%	-2%
2. Nc1ccc(Nc2nc(-c3cccs3)cs2)cc1
 : 0	-1.2%	3%	-1%
3. O=c1[nH]c2ccccc2c(O)c1Cc1ccccc1
 : 1	-2.7%	-6%	2%
4. Cc1ccc(-n2nc(C)c3cc(C(=O)O)sc32)cc1
 : 5	4.2%	-9%	17%
5. Nc1c(C(=O)Nc2ccccc2F)sc2nc(-c3ccco3)ccc12
 : 6	u	-44%	u
6. O=C(COC(=O)c1ccc(S(=O)(=O)N2CCCC2)cc1)Nc1ccc(N2CCOCC2)cc1
 : 1	2.0%	10%	9%
7. Cc1ccc(F)cc1S(=O)(=O)NCc1ccc(N2CCN(C)CC2)cc1
 : 0	-1.1%	-10%	11%
8. COc1ccc(-n2nnnc2SCC(N)=O)cc1
 : 3	-0.7%	-11%	-16%
9. CCCCCn1nc(C(=O)N(CC)c2c(N)n(CCCC)c(=O)[nH]c2=O)c2ccccc2c1=O
 : x	-0.6%	x	6%
10. CCn1c(-c2nn(C)c(C)c2Cl)n[nH]c1=S
 : 7	1.1%	-18%	3%
11. COc1cc(OC)cc(C(=O)Nc2ccc(Nc3ccccc3)cc2)c1
 : x	-2.4%	-32%	11%
12. O=C(CCNC(=O)Cn1ccc2ccccc2c1=O)NCc1ccc(F)cc1Cl
 : 1	-0.9%	2%	-4%
13. O=C(COC(=O)c1ccccn1)Nc1cccnc1Cl
 : x	u	x	-6%
14. Cc1cccn2c(=O)c3cc(C(=O)NC4CCCC4)c(=N)n(CCCN4CCOCC4)c3nc12
 : x	u	2%	u
15. Cc1cc(C)n(Cc2cc(C(=O)O)c3ccccc3n2)n1
 : -2[21.1 µM]	1.6%	4%	11%
16. CC(=O)Nc1ccccc1NC(=O)C/C(C)=N/NC(=O)c1ccncc1
 : 8	-3.4%	-3%	15%
17. Cc1ccc(-n2cc(CNC(C)c3cnn(C)c3C)c(-c3ccc(F)cc3)n2)cc1 (stereo not drawn)
 : -5	-0.1%	8%	-5%
18. O=C(CSc1ncnc2c1oc1ccccc12)NCc1ccco1
 : 2	-3.8%	-32%	-12%
19. O=C(c1ccccc1)N1CCN(C(=O)c2ccc([N+](=O)[O-])cc2)CC1
 : -2	0.4%	0%	16%
20. O=C1CCC(=O)c2ccc3c4c(ccc1c24)CC3
 : x	-8.5%	x	0%
21. S=C(Nc1ccc(Cl)cc1)c1nc2ccccc2s1
 : 7	-1.1%	-41%	-11%
22. Cc1ccnc(SCC(=O)n2c3c(c4ccccc42)CC(C)CC3)n1 (stereo not drawn)
 : 6	u	-8%	-6%
23. CCCCC(=O)NNC(=O)c1c(O)c2ccccc2[nH]c1=O
 : 3	-3.1%	-1%	-20%
24. Cc1ncc([N+](=O)[O-])n1CCO
 : -5&-4&3	-1.2%	-6%&-1%	-11%
25. CC(=O)c1cccc(S(=O)(=O)N2CCC(n3nnc4cc(F)ccc43)CC2)c1
 : -6	-0.2%	0%	17%
26. O=C(CCC1CCCN(c2ncccn2)C1)NCc1ccccc1F (stereo not drawn)
 : 8	4.5%	-2%	3%
27. CCOc1ccc(N(C)Cc2cc(=O)oc3ccc(OCC)cc23)cc1
 : x	4.3%	-2%	5%
28. CC1CCc2cc(F)ccc2N1C(=O)c1cnc2sccn2c1=O (stereo not drawn)
 : -16	3.4%	-6%	1%
29. CCOc1cc(C(=O)NC)cc(OCC)c1OCC
 : -10	1.1%	-5%	-12%
30. S=C(c1ccc(-c2ccc(Br)cc2)o1)N1CCCCC1
 : -5	-2.3%	-26%	26%
31. CN=c1scc(C)n1/N=C/c1cc(Br)c(O)c(Br)c1
 : -24	u	-34%	u
32. COc1ccccc1C=NN1C(=O)CSC1=S
 : x	1.4%	x	-6%
33. CCn1nc(C(=O)OCC(=O)N2CC(=O)Nc3ccccc32)c2ccccc2c1=O
 : -7	0.4%	0%	8%
34. C/C=C(\C)CN1CCC(n2nccc2NC(=O)CCCc2ccccc2)CC1
 : x	-5.3%	-5%	0%
35. Cc1ccc2[nH]c(=O)c(CN(CCc3ccccc3)C(c3nnnn3Cc3ccco3)C(C)C)cc2c1 (stereo not drawn)
 : -11	u	-1%	-22%
36. CCOC(=O)[C@H]1[C@H]2COc3ccc(C)cc3[C@@H]2N2C(=O)CN(C)C(=O)[C@@]12C
 : x	4.1%	x	-16%
37. CCOC(=O)N1CCN(C2CC(=O)N(c3ccc(F)cc3)C2=O)CC1 (stereo not drawn)
 : -1	-0.2%	-1%	-7%
38. Cc1cc(-c2ccc(F)cc2)nc2cc(C(N)=O)nn12
 : 1	-2.6%	-5%	0%
39. O=C(COC(=O)CCC1CCCC1)Nc1ccccc1Sc1ccccc1
 : -19	-2.9%	-2%	-11%
40. CC(NC(=O)C(=O)N1CCCCC1)C(c1cccs1)N1CCN(c2ccccc2F)CC1 (stereo not drawn)
 : x	-3.5%	6%	21%
41. O=C(CSc1ccccc1)NCCCc1ccccc1
 : -15	1.3%	-26%	-8%
42. CCOC(=O)C1(Cc2ccccc2C)CCCN(C(=O)c2cc(C3CC3)[nH]n2)C1 (stereo not drawn)
 : 4	-0.8%	-3%	12%
43. CC(=O)Nc1ccc(S(=O)(=O)N[C@@H](C)C(=O)Nc2ccc(N3CCOCC3)cc2)cc1
 : 2	-2.9%	0%	6%
44. CN(C)C(=O)CCc1ccc2c3c([nH]c2c1)[C@]1(CCc2ccccc2)[C@@H](C(=O)N2CCCCC2)C[C@H](CC(=O)NCCCn2ccnc2)C(=O)N1CC3
 : x	1.9%	x	29%
45. Nc1nonc1-n1nnc(C(=O)N/N=C/c2ccc(O)cc2)c1COc1ccc(F)cc1
 : 6	-0.1%	0%	17%
46. COc1ccc(Cl)cc1C(=O)Nc1ccncc1
 : x	0.3%	-22%	11%
47. COc1ccc(CN2C(=O)CSCC2=O)cc1OC
 : x	0.8%	0%	30%
48. CC1SCC(NC(=O)c2ccc(Cl)cc2)CS1 (stereo not drawn)
 : 1	0.3%	-73%	-5%
49. O=C(c1ccccc1)c1ccc(OCC(O)CNCc2ccc(F)cc2)cc1 (stereo not drawn)
 : x	0.4%	-12%	1%
50. NS(=O)(=O)c1ccc(CCNC(=O)CNC(=O)Cc2ccccc2)cc1
 : x	5.3%	0%	-18%
51. Nc1ccc(C(=O)N/N=C/c2cn(Cc3ccc(F)cc3)c3ccccc23)cc1
 : x	1.6%	-10%	12%
52. O=S(=O)(Nc1ccccn1)c1cccc(S(=O)(=O)c2ccc(Br)cc2)c1
 : -12	-0.9%	-4%	-1%
53. COC(=O)C1=C(C)Nc2ncnn2C1c1cccnc1 (stereo not drawn)
 : 1	0.8%	-4%	1%
54. Cc1cccc(NC(=O)CSc2ccc(-c3cccnc3)nn2)c1
 : x	0.0%	4%	9%
55. O=c1c2ccccc2c(C=Nc2ccc(Cl)cn2)c(O)n1-c1cc(Cl)ccc1N1CCOCC1
 : -3	-3.5%	-8%	-21%
56. CCC(=O)N1CCN(c2ccc(NC(=O)c3ccc([N+](=O)[O-])o3)cc2Cl)CC1
 : 2	4.7%	13%	4%
57. CCOC(=O)[C@H]1[C@H]2COc3ccc(OC)cc3[C@H]2N2C(=O)CN(Cc3ccccc3)C(=O)[C@@]12C
 : x	5.6%	x	6%
58. Cc1ccc(/C=C/C(=O)NCCc2c[nH]c3ccccc23)o1
 : 0	-1.6%	-5%	3%
59. Cc1ccc(C2(C)NC(=O)N(CC(=O)Nc3cc(C)on3)C2=O)cc1 (stereo not drawn)
 : 6	-0.5%	-3%	16%
60. COc1ccc(NC(=O)OCC(C)C)cc1OC
 : 2	-3.9%	-33%	-2%

61: CCc1ccc(-c2cc3c(=O)n(CC(=O)NCCCN4CCN(C)CC4)ncn3n2)cc1
62: O=C(COc1ccc(Cl)cc1Cl)NCCSc1ccc(Cl)cc1
63: O=C(N=C1SCC(=O)N1c1ccccc1Cl)c1ccccc1
64: Cc1ccc(N2C(=O)c3ccccc3C2C(=O)c2cc(C)ccc2O)cc1 (stereo not drawn)
65: O=C(CSc1nnc(Cc2ccccc2)o1)c1cc(F)ccc1F
66: CCC(=O)Nc1cc(C(=O)NCC2CCCN2CC)c(OC)cc1N(C)C (stereo not drawn)
67: COc1cc(C(=O)NC2CCCCC2)ccc1OC1CCN(C(C)=O)CC1
68: CCN(CC(=O)Nc1ccc(C(C)=O)cc1)CC(=O)Nc1ccc2c(c1)OCCO2
assay / entry	61	62	63	64	65	66	67	68
GLA inh pH 4.5	x	-6	1	-14	2	-3	x	x
Rango complex inh	2.1%	-0.8%	-3.5%	u	1.6%	-2.9%	-0.5%	-3.7%
miR-21 FLuc	-19%	-11%	-59%	-50%	-5%	-6%	-17%	x
Rango dissoc inh	-2%	3%	-5%	u	18%	7%	-16%	-11%

Entries of single compounds as entered above:
O=C(CSc1ccccc1)NCCCc1ccccc1 is entered as GLA inh pH 4.5: -15; Rango complex inh: 1.3%; miR-21 FLuc: -26%; Rango dissoc inh: -8%
CCn1nc(C(=O)OCC(=O)N2CC(=O)Nc3ccccc32)c2ccccc2c1=O is entered as GLA inh pH 4.5: -7; Rango complex inh: 0.4%; miR-21 FLuc: 0%; Rango dissoc inh: 8%
Nc1ccc(C(=O)N/N=C/c2cn(Cc3ccc(F)cc3)c3ccccc23)cc1 is entered as GLA inh pH 4.5: x; Rango complex inh: 1.6%; miR-21 FLuc: -10%; Rango dissoc inh: 12%

Next results.
69: CC(NC(=O)c1cccs1)c1ccc2c(c1)OCO2 (stereo not drawn)
70: CC1CCCC(C)N1NC(=O)Cc1ccccc1 (stereo not drawn)
71: COc1ccc(NS(=O)(=O)c2ccc(NS(=O)(=O)c3cccs3)cc2)cc1
72: C/C(=N\Nc1nnc2c3ccccc3n(C)c2n1)c1ccc(C)o1
73: CCN(CC)S(=O)(=O)c1ccc(C(=O)N2CCN=C2SC)cc1
74: CC(Oc1cc2oc(=O)c3c(c2cc1Cl)CCC3)C(=O)NCc1cccnc1 (stereo not drawn)
75: Cc1ccc(C(=O)NCCNC(=O)c2cnccn2)cc1
76: CC(C)(C)c1nnc(SCC(=O)Nc2ccc(N3CCCCC3)cc2)n1N
assay / entry	69	70	71	72	73	74	75	76
GLA inh pH 4.5	-2	x	x	0	3	x	x	x
Rango complex inh	2.0%	4.8%	1.1%	0.1%	0.2%	-0.4%	-2.6%	1.9%
miR-21 FLuc	-6%	-2%	5%	-18%	-4%	-2%	-3%	x
Rango dissoc inh	-8%	5%	-23%	-14%	20%	-4%	33%	-1%

77: O=C(Nc1ccccc1Cl)N1CCN(c2ccc3nnc(-c4ccc(F)cc4)n3n2)CC1
78: COCCN=c1scc(-c2ccco2)n1/N=C/c1ccc(O)c(O)c1O
79: COc1ccc(C(=O)NC(=S)NNC(=O)c2ccc(NC(C)=O)cc2)cc1Br
80: CCN(CC)S(=O)(=O)c1ccc(C(=O)NNc2nc(-c3ccccc3)c3cc(Br)ccc3n2)cc1
81: Cn1cc(S(=O)(=O)NC2CCCCCC2)c(=O)n(C)c1=O
82: C#CCOCCOCCOCCNc1nc(N2CCN(C(=O)[C@H]([C@@H](C)CC)n3cc(CCCCN)nn3)CC2)nc(N2CCN(C(=O)[C@H]([C@@H](C)CC)n3cc(CCCN=C(N)N)nn3)CC2)n1
assay / entry	77	78	79	80	81	82
GLA inh pH 4.5	-8	-11	-25	-9	x	x
Rango complex inh	0.3%	u	4.5%	2.4%	1.6%	-0.3%
miR-21 FLuc	-1%	0%	-6%	20%	-5%	x
Rango dissoc inh	0%	u	4%	u	-1%	0%

Not all compounds are listed; the hit share may differ from the screen's.
